Screening results: PubChem BioAssay, Johns Hopkins Ion Channel Center
KCNQ2 pot – enhances the rat KCNQ2 potassium channel; O88943; CHO-K1 KCNQ2, FluxOR thallium flux fluorescence; active compounds read high; B-score at 10 µM; actives 0.54% (n = 310,000); AID 2239;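 active means fluorescence ratio B-score at least 3 SD of library B-scores, with initial fluorescence B-score within 3 SD, cut at about 5.3 in these data; same plate scores as AID 2156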;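 further: B-score of peak minus minimum over baseline fluorescence ratio after K+ and Tl+ stimulus; positive B-score means potentiation of KCNQ2 with more thallium influx and brighter signal; only the inactives scoring about 0 or higher are listed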
Target sequence (O88943 whole entry, looked up): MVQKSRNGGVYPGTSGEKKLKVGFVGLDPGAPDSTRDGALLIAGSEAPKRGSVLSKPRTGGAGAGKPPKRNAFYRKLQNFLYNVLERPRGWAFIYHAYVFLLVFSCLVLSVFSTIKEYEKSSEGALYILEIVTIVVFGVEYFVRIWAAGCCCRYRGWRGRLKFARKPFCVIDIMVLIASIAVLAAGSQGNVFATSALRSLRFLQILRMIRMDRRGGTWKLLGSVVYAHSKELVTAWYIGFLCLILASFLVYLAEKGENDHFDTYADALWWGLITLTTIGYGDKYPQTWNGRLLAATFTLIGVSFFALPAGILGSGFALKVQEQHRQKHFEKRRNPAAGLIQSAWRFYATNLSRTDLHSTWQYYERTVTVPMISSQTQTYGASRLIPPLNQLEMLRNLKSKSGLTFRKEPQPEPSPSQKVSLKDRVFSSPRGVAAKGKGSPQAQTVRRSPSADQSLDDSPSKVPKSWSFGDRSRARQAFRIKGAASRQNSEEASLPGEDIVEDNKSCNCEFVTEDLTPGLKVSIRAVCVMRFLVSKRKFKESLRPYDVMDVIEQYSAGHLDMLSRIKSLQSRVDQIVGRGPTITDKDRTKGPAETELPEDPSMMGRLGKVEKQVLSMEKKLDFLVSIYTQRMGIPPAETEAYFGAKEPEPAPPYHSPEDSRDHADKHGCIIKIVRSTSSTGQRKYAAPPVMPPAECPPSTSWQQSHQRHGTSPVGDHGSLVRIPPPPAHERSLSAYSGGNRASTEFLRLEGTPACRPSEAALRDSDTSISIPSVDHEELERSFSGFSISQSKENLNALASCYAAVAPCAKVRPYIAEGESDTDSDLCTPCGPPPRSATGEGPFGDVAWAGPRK
KCNQ2 pot baseline – also measured in KCNQ2 pot; calls as there; B-score; compound at 10 µM; measured here: initial fluorescence intensity artifact check;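 brightness before thallium and not channel activity; 0 = typical well and far values either way flag optical interference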
* hit, by the source's call. This is a subset; count on the stated rates, not on these rows.

A first look:
Results follow in this order: KCNQ2 pot, KCNQ2 pot baseline
- COCCn1c(SCC(=O)Nc2cc(Cl)ccc2OC)nc2c(c1=O)SC(C)C2 (stereo unspecified)
  0.06, -0.27
- CN(C)/C(CN1CCN(C=O)CC1)=C1\N=C(c2ccccc2)OC1=O
  0.87, -3.83
- COc1ccc(CCC(=O)Nc2c(C)n(C)n(-c3ccccc3)c2=O)cc1
  0.82, 0.33
- O=C(COC(=O)c1ccccc1SCC(=O)N1CCCC1)NC1CCS(=O)(=O)C1 (stereo unspecified)
  0.02, -0.28

The whole of this part, from the first entry:
Results follow in this order: KCNQ2 pot, KCNQ2 pot baseline
- COCCn1c(SCC(=O)Nc2cc(Cl)ccc2OC)nc2c(c1=O)SC(C)C2 (stereo unspecified)
  0.06, -0.27
- CN(C)/C(CN1CCN(C=O)CC1)=C1\N=C(c2ccccc2)OC1=O
  0.87, -3.83
- COc1ccc(CCC(=O)Nc2c(C)n(C)n(-c3ccccc3)c2=O)cc1
  0.82, 0.33
- O=C(COC(=O)c1ccccc1SCC(=O)N1CCCC1)NC1CCS(=O)(=O)C1 (stereo unspecified)
  0.02, -0.28
- Cc1cc(C)cc(NC(=O)Cn2nnc3ccccc3c2=O)c1
  1.1, 0.16
- CCN(CC)S(=O)(=O)c1cc(C(=O)Nc2cccnc2Cl)ccc1Cl
  1.36, -0.06
- CCN(CC)CCCN1C=C2C(=O)C(C)(OC(=O)CCc3ccccc3)C(=O)C=C2C=C1c1ccc(C#N)cc1 (stereo unspecified)
  0.55, -1.2
- CCN1CCN(S(=O)(=O)c2ccc(S(=O)(=O)N(CC)Cc3ccccc3)cc2)CC1
  0.72, 0.3
- CCCCN(CC)CCCNC(=S)Nc1ccc2nc3n(c(=O)c2c1)CCCCC3
  0.93, -0.51
- COc1ccc(C(=O)Nc2cc3c(cc2N2CCCCC2)n(C)c(=O)n3C)cc1OC
  0.12, -0.09
- CC(C)[C@H](NC(=O)c1cc2cc(Cl)ccc2n1C)C(=O)N1CCC(C(=O)O)CC1
  0.02, -2.02
- CCSc1nnc(NC(=O)CN2C(=O)C3CC=CCC3C2=O)s1 (stereo unspecified)
  0.52, -0.11
- COC(=O)Nc1ccc2c(c1)N(C(=O)CCCl)c1ccccc1S2
  0.36, -1.73
- CCCCOc1ccc(C(=O)NCC(=O)NC2CCN(Cc3ccccc3)CC2)cc1
  0.67, -0.52
- COc1ccc(NC(=O)c2sc3nc(C)nc(N4CCOCC4)c3c2C)c(OC)c1
  1.32, 0.01
- CCOC(=O)c1nnsc1NC(C)=O
  1.48, 1.31
- CC(C)(C)OC(=O)N[C@@H](COCc1ccccc1)C(=O)N[C@@H](CO)[C@H](O)[C@@H]1C[C@@H]1C(=O)NC1CC1
  0.01, 2.32
- CN(C)CCNc1ncnc2c1sc1nc(N3CCCC3)c3c(c12)CC(C)(C)OC3
  4.81, -3.67
- COc1cc2c(=O)n(Cc3ccccc3)c(=O)n(CC(=O)NCc3ccco3)c2cc1OC
  0.23, -0.61
- COc1cccc(N(C(=O)Cn2nnc(-c3ccc(Cl)cc3)n2)C(C(=O)NCC2CCCO2)c2ccc(C)cc2)c1 (stereo unspecified)
  0.44, -0.15
- CCn1cc(C(=O)N2CCCC2)c(=O)c2cc(S(=O)(=O)N3CCOCC3)ccc21
  0.14, 1.53
- CCCCCCCCS(=O)C1CS(=O)(=O)CC1O (stereo unspecified)
  0.24, 0.49
- COc1ccc(S(=O)(=O)Nc2c(O)ccc3ccccc23)cc1OC
  8.01*, -0.94*
- CC1CCCC(NC(=O)CN(C)S(=O)(=O)c2cnc[nH]2)C1C (stereo unspecified)
  0.79, -0.02
- Cc1ccccc1NC(=O)Nc1nc2ccc(S(C)(=O)=O)cc2s1
  0.33, -0.35
- S=C(NCc1ccccc1)Nc1ccc(Oc2ccccc2)cc1
  0.08, -1.48
- COc1ccc(C(=O)C2CCCN(C(=O)Cn3nc(C)cc3C)C2)cc1F (stereo unspecified)
  0.07, -1.44
- Cc1ccc(C(=O)COC(=O)CN2C(=O)C3C4C=CC(C4)C3C2=O)cc1C (stereo unspecified)
  1.15, -0.68
- CCCCCC(=O)NN1C(=S)N(c2ccc(OC)cc2)C(=O)C1CC(=O)Nc1ccccc1 (stereo unspecified)
  0.64, -0.11
- O=C1CC(Nc2ccc(N3CCOCC3)cc2)C(=O)N1Cc1ccccc1 (stereo unspecified)
  1.01, 0.73
- CC(C)c1cc(C(=O)Nc2sc3c(c2C#N)CCC3)no1
  1.59, 0.36
- Clc1ccc(-n2cccc2)cn1
  0.57, -0.08
- Cn1c(CN2CCN(C(=O)c3ccco3)CC2)nc2cc([N+](=O)[O-])ccc21
  0.49, 0.19
- CCCN(CC(=O)Nc1ccccc1C)C(=O)/C=C/c1cccs1
  1.45, -2.9
- CCCSc1nnc(NC(=O)CSc2sc3c(O)cc(=O)[nH]c3c2C#N)s1
  0.39, 0.39
- Cc1c(C(=O)N2CCCC2)c(S(=O)(=O)Nc2ccccc2Cl)c(C)n1C
  1.84, -0.09
- CCOC(=O)/C(C#N)=C\C1=C(N2CCOCC2)CC(C)(C)OC1
  2.5, -0.01
- CNC(=O)COc1ccc(C=O)cc1OC
  0.63, -0.71
- Cc1ccc(C(=O)NC2CC(C)(C)NC(C)(C)C2)cc1Cl
  0.2, -0.15
- CN(C)CCCN(C(=O)c1ccco1)c1nc2ccc(F)cc2s1
  1.03, -0.03
- CCC(=O)c1cc2c(C)cc(=O)oc2c(C)c1OC(C)=O
  2.02, -2.17
- CC(C)Cn1c(-c2ccc(Br)o2)n[nH]c1=S
  1.66, 0.07
- O=C(COc1ccc2c(-c3ccccc3)cc(=O)oc2c1)NCc1cccs1
  0.07, 2.49
- CCn1c(CCNC(=O)c2ccccc2Cl)n[nH]c1=S
  0.2, -0.18
- Cc1ccc(SCC(=O)NC(=O)NCc2ccco2)c(C)c1
  1.63, -1.74
- COc1cccc(N2CCN(S(=O)(=O)c3ccc4c(c3)N(C(C)=O)CCO4)CC2)c1
  2.05, -0.27
- O=[N+]([O-])c1ccc(N2CCN(S(=O)(=O)c3ccccc3)CC2)c2cccnc12
  0.02, 0.56
- COc1ccc(CN2CC(C(=O)NCCc3ccccc3)CC2=O)cc1 (stereo unspecified)
  0.01, 0.53
- CCOC(=O)N1CCN(c2c(N3CCc4ccccc43)c(=O)c2=O)CC1
  0.11, -0.43
- COCCNC(=O)c1ccc(CN2CCc3ccccc3C2)cc1
  0.28, -1.26
- CC(C)(C)C1CCC(C(=O)Nc2nccs2)CC1 (stereo unspecified)
  2.53, 0.54
- CN(CC(=O)Nc1ccc(Cl)c(C(F)(F)F)c1)C(=O)C1CC(=O)N(Cc2ccco2)C1 (stereo unspecified)
  0.31, -1.33
- O=C(c1ccco1)N1CCN(c2ncnc3c(-c4ccc(Cl)cc4)nsc23)CC1
  0.37, 1.81
- CCCCC(=O)Nc1ccc(Br)cc1C(=O)O
  3.17, -1.3
- CCCCCCCc1nc2c(=O)n(C)c3ccccc3c2o1
  0.01, 0.16
- O=C(CSCc1ccc(Br)cc1)N1CCOCC1
  0.4, 0.08
- Cc1nnsc1C(=O)NNS(=O)(=O)c1ccccc1
  0.06, -0.19
- COc1ccc2cc(C(=O)C3CCCN(C(=O)Cc4c(C)noc4C)C3)ccc2c1 (stereo unspecified)
  0.69, -3.16
- COc1ccccc1NC(=O)c1ccccc1S(=O)(=O)c1ccccc1[N+](=O)[O-]
  0.28, -1.23
- COCCCN1C(=O)C(=O)/C(=C(/O)c2ccccc2)C1c1ccc(N(C)C)cc1 (stereo unspecified)
  0.71, -0.72

(next part)
Results follow in this order: KCNQ2 pot, KCNQ2 pot baseline
- CN(C(=O)COC(=O)c1ccc2ccccc2n1)C1CCS(=O)(=O)C1 (stereo unspecified)
  0.12, -0.75
- O=C(Nc1cccn2ncnc12)c1ccccc1
  0.66, 1.14
- N#CCCn1c(SCC(=O)NCc2ccco2)nc2ccccc21
  0.29, 1.61
- CC(C)(C)c1cc(CN2CCCCC2)cc(C(C)(C)C)c1O
  0.83, 0.55
- Cc1c(C)[n+](=O)c(-c2ccc(Br)cc2)c(C)n1[O-]
  1.15, 0.31
- CCOCCCN(C(=O)c1ccco1)C(C(=O)NC1CCCC1)c1cccc(OC)c1OC (stereo unspecified)
  0.48, -0.04
- COCC(C)N1CCC(Oc2cccc(C(=O)NCCc3ccccc3)c2)CC1 (stereo unspecified)
  0.04, -0.94
- C/C(=N/NC(=O)c1cc(-c2cccc([N+](=O)[O-])c2)n[nH]1)c1ccc(Cl)cc1
  2.25, 1.88
- NC(N)=N/N=C/c1cc([N+](=O)[O-])ccc1O
  0.34, 0.76
- Cn1cnnc1SCC(=O)c1c[nH]c2ccccc12
  1.08, -1.51
- CCOC(=O)c1cc2c(=O)n3cccc(C)c3nc2n(CC2CCCO2)c1=NC(C)=O (stereo unspecified)
  1.3, -0.59
- Cc1ccc(S(=O)(=O)CC(C)N2CCN(C3CCCCC3)CC2)cc1 (stereo unspecified)
  1.01, 0.33
- Cc1ccc2nc(SCc3nc4cc(Cl)ccc4c(=O)[nH]3)[nH]c2c1
  0.52, -1.55
- COc1ccc(S(=O)(=O)N2CCOCC2)cc1NC(=O)CO/N=C/c1ccccc1OC(F)F
  0.69, -0.09
- CC(=O)c1sc(Nc2nc3ccc(F)cc3s2)nc1C
  0.06, 0.15
- O=C(N/N=C/c1ccccc1)c1ccc(NC(=O)c2ccc(F)cc2)cc1
  0.54, 1.45
- CC(C)OC(=O)CSc1nnc(-c2ccc(Cl)cc2Cl)o1
  0.21, -1.08
- O=C(CSc1nc2ccccc2c(=O)n1Cc1ccc(F)cc1)NCc1cccs1
  1.47, 0.56
- O=C(CSc1ccc2nnc(-c3ccc(Cl)cc3)n2n1)N1CCc2ccccc21
  0.42, -1.65
- Cc1cccc(NC(=O)Nc2ccc3c(c2)N(C)C(=O)CS3)n1
  0.21, 0.02

Molecules above containing a tert-butyl group, in the order listed:
Results follow in this order: KCNQ2 pot, KCNQ2 pot baseline
- CC(C)(C)OC(=O)N[C@@H](COCc1ccccc1)C(=O)N[C@@H](CO)[C@H](O)[C@@H]1C[C@@H]1C(=O)NC1CC1
  0.01, 2.32
- CC(C)(C)C1CCC(C(=O)Nc2nccs2)CC1 (stereo unspecified)
  2.53, 0.54
- CC(C)(C)c1cc(CN2CCCCC2)cc(C(C)(C)C)c1O
  0.83, 0.55

Additional records.
Results follow in this order: KCNQ2 pot, KCNQ2 pot baseline
- Cc1ccc(-c2noc(CCC(=O)NCc3ccco3)n2)cc1
  0.16, 3.64
- O=C(CSc1nnc2scc(-c3ccccc3)n12)NCC1CCCO1 (stereo unspecified)
  0.08, 1.45
- O=S(=O)(NCCc1ccccn1)c1ccc(F)c(F)c1
  6.06*, -1.58*
- Cc1cc(CNC(=O)CCc2nnc(CCCCc3ccccc3)o2)nn1C
  0.67, 1.24
- Cc1ccccc1C(=O)Nc1nc2c(C)csc2c(=O)s1
  0.66, -1.61
- COc1ccc(Cl)cc1NC(=O)CSc1nc(Nc2ccccc2)nc(N2CCOCC2)n1
  1.32, 0.28
- CCOC(=O)c1ccc(C(=O)OCC)c(NC(=S)Nc2ccc([N+](=O)[O-])cc2OC)c1
  1.93, -1.89
- Cc1nc2ccccc2c(=O)n1-c1cccc(NS(=O)(=O)c2ccccc2)c1
  0.01, 0.48
- COc1nc(OC)nc(N2CCC(C(=O)NCc3cccs3)CC2)n1
  0.08, -0.08
- CCOC(=O)/C(N=Nc1c(C)n(C)n(-c2ccccc2)c1=O)=C(\C)O
  1.69, 1.43
- CC(=O)N1CCN(C(=O)c2cccc(NS(=O)(=O)c3ccc(Br)cc3)c2)CC1
  1.04, 1.74
- Cc1ccc(-c2nnc(Nc3ccccc3)o2)cc1
  0.79, -0.06
- O=C(CN1C(=O)c2ccccc2S1(=O)=O)NC1CC2CCC1C2 (stereo unspecified)
  1.55, 0.37
- CN(C)C(=S)NCc1ccccc1
  0.02, -2.16
- CC(=O)N1CCc2cc(S(=O)(=O)NCCCN3CCN(Cc4ccccc4)CC3)ccc21
  0.83, 0.32
- CCOc1ccc(NC(=O)C(=O)NCC2CCCN2CC)cc1 (stereo unspecified)
  1, 0
- CC(=O)c1sc2nc(C)cc(C)c2c1N
  0.24, 1.1
- CCOC(=O)CNC(=O)c1cnc(Nc2ccccc2OC)c2ccccc12
  1.43, -0.71
- COc1cccc(N(C(=O)c2snc(C(N)=O)c2N)C(C(=O)NCC2CCCO2)c2c[nH]c3ccccc23)c1 (stereo unspecified)
  0.27, -0.07
- CCCCNC(=O)c1ccccc1Cl
  1.27, -0.14
- COc1ccc(C(C(=O)NC2CCCC2)N(C(=O)Cc2cccs2)C2CC2)cc1OC (stereo unspecified)
  1.02, -0.94
- Cc1ccc(OCC(=O)c2cc(C)n(Cc3cccs3)c2C)c([N+](=O)[O-])n1
  0.55, -0.01
- COc1ccc(-c2cc(C(F)(F)F)n3nc(C(=O)N4CCN(C(=O)c5ccco5)CC4)cc3n2)cc1
  0.43, -2.12
- Cc1ccccc1N1CCN(c2ccc(NC(=O)C3CCCCC3C(=O)O)cc2)CC1 (stereo unspecified)
  1.19, 0.59
- COc1ccc(C2/C(=C(/O)c3ccccc3)C(=O)C(=O)N2C)c(OC)c1 (stereo unspecified)
  0.03, -0.02
- CC(C(=O)Nc1ccc(OCc2ccccc2)cc1)N1CCCC1 (stereo unspecified)
  1.36, 0.45
- CCn1c(=O)c([N+](=O)[O-])c(NCc2ccco2)c2ccccc21
  0.89, -0.01
- CCOC(=O)C1=C(C)NC(=O)NC1c1ccc(OC)c(CN2CCOCC2)c1 (stereo unspecified)
  0.6, -0.43
- COC(=O)c1cccc(NC(=O)CCNC(=O)c2ccc([N+](=O)[O-])cc2)c1
  0.82, -0.58
- Oc1ccc(N2CCN(C(c3cccnc3)c3nnnn3Cc3ccccc3)CC2)cc1 (stereo unspecified)
  0.33, 0.45
- CCOc1ccc(N2C(=O)CC(N3CCN(C(=O)c4ccco4)CC3)C2=O)cc1 (stereo unspecified)
  1.63, 0.25
